KCNQ2 pot = enhances the rat KCNQ2 potassium channel; B-score at 10 µM; CHO-K1 KCNQ2, FluxOR thallium flux fluorescence; hits give high values; hit rate 0.54% among 310,000; O88943;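 active = fluorescence ratio B-score at least 3 SD of library B-scores, with initial fluorescence B-score within 3 SD, cut at about 5.3 in these data; same plate scores as AID 2156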;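 note: B-score of peak minus minimum over baseline fluorescence ratio after K+ and Tl+ stimulus; positive B-score means potentiation of KCNQ2 with more thallium influx and brighter signal; only the inactives scoring about 0 or higher are listed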
Target sequence (O88943 whole entry, looked up): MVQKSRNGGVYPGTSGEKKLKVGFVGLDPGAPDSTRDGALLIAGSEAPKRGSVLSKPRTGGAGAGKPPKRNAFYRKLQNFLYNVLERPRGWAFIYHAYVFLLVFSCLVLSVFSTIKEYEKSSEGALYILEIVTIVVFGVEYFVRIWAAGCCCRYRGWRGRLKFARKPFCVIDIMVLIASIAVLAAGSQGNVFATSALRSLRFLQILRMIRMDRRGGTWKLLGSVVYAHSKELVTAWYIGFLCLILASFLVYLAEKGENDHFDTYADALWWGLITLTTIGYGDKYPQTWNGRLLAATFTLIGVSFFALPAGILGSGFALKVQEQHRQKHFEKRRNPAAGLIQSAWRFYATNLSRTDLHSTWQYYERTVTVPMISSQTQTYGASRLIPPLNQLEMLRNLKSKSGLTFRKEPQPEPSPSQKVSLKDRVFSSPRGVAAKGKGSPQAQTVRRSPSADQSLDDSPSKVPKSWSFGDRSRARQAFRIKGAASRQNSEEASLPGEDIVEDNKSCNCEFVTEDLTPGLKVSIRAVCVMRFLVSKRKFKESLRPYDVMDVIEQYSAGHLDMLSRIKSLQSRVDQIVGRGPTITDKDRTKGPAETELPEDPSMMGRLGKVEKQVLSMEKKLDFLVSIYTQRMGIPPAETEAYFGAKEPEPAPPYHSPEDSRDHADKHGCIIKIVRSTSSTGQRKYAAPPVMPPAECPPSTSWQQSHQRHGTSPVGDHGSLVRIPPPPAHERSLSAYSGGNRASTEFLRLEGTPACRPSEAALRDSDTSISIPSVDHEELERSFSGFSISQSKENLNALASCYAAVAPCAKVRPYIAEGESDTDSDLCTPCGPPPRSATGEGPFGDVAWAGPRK
KCNQ2 pot baseline = second read-out of KCNQ2 pot, no call of its own (marks repeat the call); B-score; compound at 10 µM; measured here: initial fluorescence intensity artifact check;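 brightness before thallium and not channel activity; 0 = typical well and far values either way flag optical interference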
An asterisk follows results filed as active. This is a subset; rates above refer to the full screens.

SMILES	KCNQ2 pot	KCNQ2 pot baseline
O=[N+]([O-])c1cccc(-c2ccc(/C=N/NC(=S)Nc3cccc(F)c3)o2)c1	2.91	-0.75
C=CCn1c(N)cc(=O)nc1SCC(=O)N1CCN(c2ccc(F)cc2)CC1	0.25	0.36
CC(C)CC(c1nnnn1CC1CCCO1)N1CCN(Cc2ccc3c(c2)OCO3)CC1 (stereo unspecified)	1.57	0.77
COC(=O)CSc1ccc(S(=O)(=O)N2CCC(C)CC2)cc1[N+](=O)[O-]	0.22	0.09
O=C1c2cccc3cccc(c23)C(=O)N1CCN1CCN(C(=S)Nc2ccc(F)cc2)CC1	0.17	0.21
CC1CN(C(=O)c2ccc(CNS(=O)(=O)c3cccc(C(F)(F)F)c3)cc2)CC(C)O1 (stereo unspecified)	0.1	-2.2
NC(=O)CC(NC(=O)c1ccc(Cl)cc1)C(=O)NCCc1ccc(S(N)(=O)=O)cc1 (stereo unspecified)	1.74	0
O=C1c2ccccc2C(=O)C1c1ccc(O)cc1	0.33	0.82
CCOc1ccc(S(=O)(=O)NCCC(=O)OCC(=O)c2ccc[nH]2)cc1	0.54	-1.15
Cc1ccnc(NC(=O)c2cnc(Cl)c(Cl)c2)c1	0.34	-0.42
Cc1cc(O)c(C(C)C)cc1NC(=O)c1ccccc1Cl	0.02	1.22
COc1ccc(/C=N/n2c(=O)[nH]c3c([nH]c4ccc(F)cc43)c2=O)cc1CN1CCCCC1	0.02	-0.78

Taken from above:
CC1CN(C(=O)c2ccc(CNS(=O)(=O)c3cccc(C(F)(F)F)c3)cc2)CC(C)O1 (stereo unspecified) in KCNQ2 pot baseline reads -2.2
Cc1ccnc(NC(=O)c2cnc(Cl)c(Cl)c2)c1 in KCNQ2 pot reads 0.34
COc1ccc(/C=N/n2c(=O)[nH]c3c([nH]c4ccc(F)cc43)c2=O)cc1CN1CCCCC1 in KCNQ2 pot baseline reads -0.78
CC(C)CC(c1nnnn1CC1CCCO1)N1CCN(Cc2ccc3c(c2)OCO3)CC1 (stereo unspecified) in KCNQ2 pot baseline reads 0.77
CCOc1ccc(S(=O)(=O)NCCC(=O)OCC(=O)c2ccc[nH]2)cc1 in KCNQ2 pot reads 0.54
COC(=O)CSc1ccc(S(=O)(=O)N2CCC(C)CC2)cc1[N+](=O)[O-] in KCNQ2 pot reads 0.22

Returning to the listing, repeating the 3 entries before the break.
SMILES	KCNQ2 pot	KCNQ2 pot baseline
Cc1ccnc(NC(=O)c2cnc(Cl)c(Cl)c2)c1	0.34	-0.42
Cc1cc(O)c(C(C)C)cc1NC(=O)c1ccccc1Cl	0.02	1.22
COc1ccc(/C=N/n2c(=O)[nH]c3c([nH]c4ccc(F)cc43)c2=O)cc1CN1CCCCC1	0.02	-0.78
CC(=O)Nc1ccc(OC(=O)C(CCS(C)(=O)=O)N2C(=O)c3ccccc3C2=O)cc1 (stereo unspecified)	0.97	-1.2
Cc1cccc(NC(=O)CCc2ccccc2)c1C	2.46	0.18
COc1ccc(NC(=O)NNC(=O)c2ccccc2-n2cccc2)cc1OC	0.67	0.77
CCCN1C(=O)c2ccccc2NC1c1ccc(O)c(OCC)c1 (stereo unspecified)	0.06	-0.84
O=C(N/N=C/c1ccc(O)cc1)c1cc(-c2ccc3c(c2)OCO3)n[nH]1	0.11	0.01
C=C(C)C(=O)Nc1cccc(C2=NOC3(C2)C[C@@H](C(N)=O)N(C(=O)C(=C)C)C3)c1 (stereo partly specified)	0.41	0
CCC(=O)Nc1ccc(NC(=O)c2ccc3ccccc3c2)cc1	0.54	-0.83
CCOc1ccccc1NC(=O)CSc1nc(N)c(C#N)cc1C#N	1.11	2.31
CC1(c2nnc(-c3ccncc3)o2)CC(c2cccnc2)=NO1 (stereo unspecified)	0.04	0
O=C(CSCc1ccccc1)N1CCN(S(=O)(=O)c2ccc(F)cc2)CC1	1.71	-0.61
CCN(CC)CCOC(=O)c1ccc(NC(=O)CCCN2C(=O)S/C(=C/c3ccc(OC)cc3)C2=S)cc1	0.04	-2.02
COc1ccc(NC(=O)C2CCN(C(=O)Cc3ccccc3)CC2)cc1OC	1.04	-0.47
COc1ccc(N/C(N)=N/c2nc(C)c(Cc3ccccc3)c(=O)[nH]2)cc1	0.16	-0.76
C/C(=N\NC(=O)CN1CCN(Cc2ccccc2)CC1)c1ccncc1	0.03	-0.57
CCN(CC)CCNC(=O)COc1ccc(Cl)cc1Cl	0.99	0
C=CCn1c(C(CCCC)CC(C)O)n[nH]c1=S (stereo unspecified)	2.06	-0.94
Cn1/c(=N\NC(=O)c2ccccc2Cl)sc2ccccc21	1.06	-1.79
O=C(/C=C/c1c(Cl)nc2ccccn12)N1CCN(c2ccc(F)cc2)CC1	0.74	-1.19
CC(C)NC(=O)CCc1nc2cccnc2n1-c1ccccc1	0.08	0.7
CCOC(=O)c1c(CN2CCN(C)CC2)oc2ccc(O)cc12	0.78	0.25
O=C(CSc1nnc(Cc2csc(Nc3cccc(Cl)c3)n2)o1)N1CCc2ccccc21	0.42	1.38
COc1cccc(CNc2ccc3[nH]c(=O)[nH]c3c2)c1OCc1ccc(F)cc1	4.06	-1.93
O=C(NCc1ccco1)c1ccc2c(c1)OCCO2	1.85	-0.42
O=C(NCCc1ccccc1)c1cnc2ccccc2n1	1.34	1.22
O=C(NNc1ccc(Cl)cc1)C1CCC1	0.14	2.45
COc1ccccc1NC(=O)NCCN1C(=O)C2C3C=CC(C3)C2C1=O (stereo unspecified)	0.86	2.41
Cc1ccc(C2=NC(C)(C)N=C2SCC(=O)Nc2ccc(Cl)cc2)cc1	1.41	0.2
COc1cc(OC)c(NS(=O)(=O)c2ccc3c(c2)NC(=O)CO3)cc1Cl	0.54	-0.41
CC(C)CCCN1CCN=C1Nc1ccccc1	1.02	0.62
O=C(CCS(=O)(=O)c1ccccc1)Nc1cccc(-c2nc3ccccc3s2)c1	0.96	0.02
CCn1ncc(/C=N\NC(=O)Cc2ccc([N+](=O)[O-])cc2)c1C	1.52	-0.29
COc1cc(NC(=O)CSc2nc(C)cc(C)n2)cc(OC)c1OC	0.79	0.12
CN(Cc1ccc(-n2cccn2)cc1)Cc1cn(C)nc1-c1ccccc1F	0.67	0.84
Cc1ccc(NCc2ccco2)cc1C	0.61	1.48
O=C1CN(C(=O)c2ccccc2F)C(c2ccccc2)c2cc(F)ccc2N1 (stereo unspecified)	2.56	-1.08
O=S(=O)(NCCc1ccncc1)c1ccc(S(=O)(=O)N2CCCCCC2)cc1	0.25	-0.94
O=C1C2CC=CCC2C(=O)N1c1ccc(NCCc2ccccc2)c([N+](=O)[O-])c1 (stereo unspecified)	0.82	1.84
COC(=O)CCC(=O)NNC(=O)c1cccc(Cl)c1	1.88	1.07
O=c1c(-c2ccc(Cl)cc2)cnc2n1CCS2	1.9	-0.43
CCCCCOc1ccc(OC(=O)c2ccncc2)cc1	0.3	0.04
CC(NCC(O)COc1ccccc1)C1COc2ccccc2O1 (stereo unspecified)	1.15	0.24
CCOc1ccc(C(=O)NCCCN2CCCC2=O)cc1	0.86	1.76
COc1ccc(C(=O)C2CCCN(C(=O)c3cc(C4CC4)[nH]n3)C2)c(C)c1 (stereo unspecified)	0.38	0.46
CN(Cc1nc2ccccc2n1C)c1ccccc1	0.64	-0.89
Cc1ccc(S(=O)(=O)NC2(C(F)(F)F)NC(=O)N(CCc3ccccc3)C2=O)cc1 (stereo unspecified)	1.71	-2.43
O=C(Nc1ccc(NC(=O)c2cccs2)c(Cl)c1)c1cccs1	0.53	-0.09
COC(=O)c1ccc(/C=N\n2c(C)nnc2C)cc1	1.28	-0.47
CC1CC2=C(C(=O)O1)C(c1ccccc1)Nc1ccccc1N2 (stereo unspecified)	0.3	-0.24
COc1ccccc1/C=N/NC(=O)CO	0.06	0.19
Cc1ccc(CNC(=O)c2cc3c(=O)n(C)c4ccccc4c3n2C)cc1	3.65	-1.41
CN(C)c1ccc(/C=C(\NC(=O)c2ccccc2)C(=O)NCCCn2ccnc2)cc1	0.35	1.03
O=C(NCC1CCCO1)c1ccc(S(=O)(=O)N2CCC(c3nc4ccc(Cl)cc4[nH]3)CC2)cc1 (stereo unspecified)	0.07	-1.74
Cc1cc(NC(=O)Cc2ccccc2)ccc1NC(=O)c1cccs1	0.67	-0.48
CCCn1nnc(NC(=O)c2ccc(-c3cccc(Cl)c3)o2)n1	0.59	0.64
COc1ccc(Cc2nnc(SCC(=O)Nc3ccc(C)c(C)c3)o2)cc1OC	1.32	-0.25
Cc1ccc(C(=O)OCC2OC3OC(C)(C)OC3C2O)cc1 (stereo unspecified)	0.92	1.01
COc1ccc(C(=O)C[n+]2ccc(N(C)C)cc2)cc1	0.88	0.06
CC(C)Nc1nc(C#N)nc(NC(C)C)n1	0.2	-0.13
Cc1cccc(NC(=O)CN2C(=O)CSC2=O)c1	0.12	0.56
O=C(CC1C(=O)N(c2ccccc2)C(=O)N1C1CCCCC1)Nc1ccccc1 (stereo unspecified)	1.01	2.15
The results go on.
SMILES	KCNQ2 pot	KCNQ2 pot baseline
COc1ccc(S(=O)(=O)N2CCOCC2)cc1C(=O)N1CCCCCC1	1.23	0.04
O=C(CCC1CCCCC1)NCCN1C2=NC[C@H](Cc3ccc(O)cc3)N2C[C@H]1Cc1ccc(O)cc1	0.57	0.15
COc1ccccc1NC(=O)Cn1cnc2c(cnn2-c2ccccc2)c1=O	0.94	0.49
N#Cc1cc2c(nc1SCC(=O)N1CCOCC1)CCCCC2	0.61	0.19
CC[n+]1cccc(-c2nc3ccccc3s2)c1	0.25	-2.56
COc1ccc(NC(=O)CSc2ccccc2)cn1	0.05	1.25
S=c1nc(C2CCCCC2)n(-c2ccccc2)[nH]1	10.7*	-0.23*
O=C(/C=C/c1ccco1)NCC(=O)N/N=C/c1ccccc1[N+](=O)[O-]	0.3	-0.38
CCOC(=O)C1=C(O)C(=O)N(c2ccc(S(N)(=O)=O)cc2)C1c1ccc(Cl)cc1 (stereo unspecified)	0.58	1.03
CCCCn1c(N)c(N(CCOC)C(=O)c2cc(-c3ccc(OC)cc3)nc3ccccc23)c(=O)[nH]c1=O	0.16	1.24
CC(/C=C/c1ccccc1)=N/NC(=O)c1cnccn1	1.68	-1.43
O=C(NC1CCCCC1)N(CCN1CCOCC1)Cc1cc2cc3c(cc2[nH]c1=O)OCCO3	1.5	-1.14
COc1cccc(C(=O)CSc2nc3ccccc3n2CC(=O)N(C(C)C)C(C)C)c1	0.51	0.01
CN(c1ccccc1)S(=O)(=O)c1ccc(NC(=O)c2nc(S(C)(=O)=O)ncc2Cl)cc1	0.86	-1.42
CCc1ccccc1NC(=S)N1CCN(c2ccccc2F)CC1	0.02	1.48
Cc1c(N=C2NC(=O)C(CC(=O)Nc3ccccc3)S2)c(=O)n(-c2ccccc2)n1C (stereo unspecified)	0.85	-0.01
COc1ccc(OC)c(S(=O)(=O)N/N=C\c2c[nH]c3ccccc23)c1	1.13	-3.31
COc1cccc(COc2nc3c(c(=O)n(C)c(=O)n3C)n2C)c1	0.51	-0.32
NS(=O)(=O)c1ccc(NC(=S)NCc2cccc(Cl)c2)cc1	2.87	-1.51
Cc1ccc(-n2c(CSc3nc(C)cc(C)n3)nnc2SCC(=O)N2CCCC2)cc1	1.29	0.43
C/C(=N\NC(=O)C1CCCC1)c1ccc(Cl)c(Cl)c1	0.31	0.8
CC(=O)OCC(=O)C1=CCC2C3CCC4=CC(=O)C=CC4(C)C3(F)C(OC(C)=O)CC12C (stereo unspecified)	1.03	0.41
Cc1cc(C)c(S(=O)(=O)N2CCCOC2CNC(=O)C(=O)NCc2ccco2)c(C)c1 (stereo unspecified)	0.44	0.87
Cc1cccn2c(CN[C@H]3CCCCNC3=O)c(C(=O)N3CCOCC3)nc12	0.09	0.24
Cc1ccc(C(=O)c2c3ccc(C(F)(F)F)cc3nn2CCC(N)=O)cc1	0.93	0.46
Cc1noc(C)c1CSc1nnc(C)c(=O)[nH]1	0.58	-0.02
c1ccc(CN2CN=C(Nc3nc4ccccc4s3)NC2)cc1	0.57	-0.7
Cc1cc(C)c2nc(NC(=O)c3ccc4c(=O)n5c(nc4c3)CCCCC5)sc2c1	0.4	0.78
O=c1c2[nH]c3ccccc3c2nc2n1CCS2	1.17	1.05
O=C(Nc1ccc(OCc2ccccc2Cl)cc1)c1cccnc1	1.08	0.69
CC(=O)NC(=O)c1cnn(-c2ccccc2)c1N	0.19	0.14
Cn1nc(OCc2ccccc2)ccc1=O	0.44	-0.69
Cn1c(=O)c2c(nc(N/N=C/c3ccco3)n2C)n(C)c1=O	0.32	-1.04
Cc1cccc(OCCCC(=O)Nc2ccc(S(N)(=O)=O)cc2)c1	0.27	1.1
O=C(CCCN1C(=O)/C(=C/c2ccccc2)SC1=S)NCCCn1ccnc1	0.02	1.73
COc1ccc(N2CC(C(=O)NNC(=O)c3ccc(Br)cc3)CC2=O)c(OC)c1 (stereo unspecified)	0.33	-0.09
CCN1CCN(C(=O)c2ccc(Cl)c(S(=O)(=O)N3CCCCCC3)c2)CC1	0.48	0.83
COc1ccc(N(CC(=O)NC(C)C)C(=O)CCC(=O)Nc2ccccn2)cc1	0.43	-1.04
Cc1ccn2cc(-c3ccc(NC(=O)c4ccco4)cc3)nc2c1	1.11	-1.41
COC(=O)C1(Cc2cc(-c3ccccc3)no2)CCN(C(=O)OC(C)(C)C)CC1	2.7	-0.94
CC(C(=O)Nc1ccc(S(=O)(=O)N2CCOCC2)cc1)N1C(=O)C2CC=CCC2C1=O (stereo unspecified)	0.69	-0.63
O=c1nc(N/N=C/C=C/c2ccccc2)cn[nH]1	0.78	0.94
CCOc1ccc(N(C(=O)CNC(=O)c2cccs2)C(C(=O)NCC2CCCO2)c2ccc(OC)c(OC)c2)cc1 (stereo unspecified)	2.17	-0.84

Profiles from above:
COc1ccc(/C=N/n2c(=O)[nH]c3c([nH]c4ccc(F)cc43)c2=O)cc1CN1CCCCC1 is listed with KCNQ2 pot: 0.02; KCNQ2 pot baseline: -0.78
Cc1ccn2cc(-c3ccc(NC(=O)c4ccco4)cc3)nc2c1 is listed with KCNQ2 pot: 1.11; KCNQ2 pot baseline: -1.41
